Screening results (PubChem)
Bead autofluor: compound fluorescence in toxin protease inhibitor counterscreen; fluorescence intensity (concentration not given with the values); AID 624483; compound autofluorescence counterscreen, microsphere flow cytometry; stronger effect = higher value; hit rate 3.1% among 360,000;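 active = at least 3 SD above the mean of all compounds, about 16000 in these data; inconclusive = too few beads counted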;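 also: 100 nL of 1 mM stock went into each well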
BJeLR lethal: BJeLR cell viability loss; hit rate 0.17% among 300,000; inhibition, % (no concentration beside the values); BJeLR (HRASV12) viability, CellTiter-Glo ATP luminescence, 48 h; reference of the scale not given here;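 active = replicate mean above 50%; inconclusive = above 50% but judged a plate artefact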;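 also: 50 nL library stock added to about 25 µL; numbers are from one replicate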
PrP UTR inh: inhibition of PrP 5' UTR reporter expression; cell-based PrP 5' UTR mRNA reporter, plate reader; inhibition, % (no concentration beside the values); hit rate 0.35% among 340,000;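 active = every replicate at 50% or more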;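 also: 0 = median of the neutral control wells; tested in H4 reporter cells; numbers are from one replicate; inactives centre near -14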
Mtb hypoxia inh: reduces hypoxia-regulated biosensor signal in M. tuberculosis. hit rate 0.1% among 300,000. M. tuberculosis hypoxia-regulated fluorescent reporter, fluorescence. fluorescence inhibition, % (test concentration not listed). AID 1159583;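 active = 35 to 45% if threefold the growth effect, above 45% if 1.5-fold the growth effect; inactive = the rest, general growth blockers included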;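 also: wells of about 50 µL received 100 nL stock; 0% = vehicle wells and 100% = reference inhibitor wells; whole bacteria with a GFP reporter of the hypoxia response; strong numbers were not always called active; many hits fall short of the cut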
ugtP null kill: growth inhibition of S. aureus ugtP deletion strain; S. aureus RN4220 ugtP deletion, OD600 growth, 16 h; some inactives read as strong as hits; growth inhibition, % (test concentration not listed); hit rate 0.54% among 330,000; AID 1259309;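 active = z-score under -3 and OD600 up to 0.15 on both plates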;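 also: plate controls were untreated wells for no effect and antibiotic for full effect; wells of about 80 µL received 100 nL stock; the first replicate is given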
RN4220 kill: S. aureus RN4220 growth inhibition; hit rate 0.33% among 330,000; inhibition, % (no concentration beside the values); AID 1259311; OD600, 16 h;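 active = z-score of -3 or lower and OD600 up to 0.18 on both plates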;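 also: plate controls were untreated cells for no effect and reference antibiotic for full effect; stock transfer was 100 nL into about 80 µL; one replicate is shown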
Mtb hypoxia inh growth: recorded beside Mtb hypoxia inh, whose call it bears; growth inhibition, %; measured here: M. tuberculosis growth (absorbance);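 0% = vehicle and 100% = reference antibiotic; read after six days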
Numbers without * were called inactive; ? = inconclusive; nt = not tested or not shown.

Start of the listing, in advance (2 entries):
SMILES | Bead autofluor | BJeLR lethal | PrP UTR inh | Mtb hypoxia inh | Mtb hypoxia inh growth | ugtP null kill | RN4220 kill
Cc1cc(C)cc(C(=O)Nc2ccncc2)c1 | nt | -2.5 | -23.1 | 21.8 | 2.7 | 2.9 | 3.9
CCOC(=O)CN1C(=O)NC(c2ccc(Br)cc2)C(C(=O)OC)=C1C (stereo not drawn) | nt | nt | nt | 14.0 | 5.9 | 3.6 | 7.9

All compounds of this part, repeating the preview:
SMILES | Bead autofluor | BJeLR lethal | PrP UTR inh | Mtb hypoxia inh | Mtb hypoxia inh growth | ugtP null kill | RN4220 kill
Cc1cc(C)cc(C(=O)Nc2ccncc2)c1 | nt | -2.5 | -23.1 | 21.8 | 2.7 | 2.9 | 3.9
CCOC(=O)CN1C(=O)NC(c2ccc(Br)cc2)C(C(=O)OC)=C1C (stereo not drawn) | nt | nt | nt | 14.0 | 5.9 | 3.6 | 7.9
CCOc1ccc(/C=C(/C#N)c2nnc(N3CCOCC3)n2-c2ccccc2)cc1OC | 3950 | nt | -10.8 | 5.1 | 11.2 | 4.5 | 3.8
Cc1ccc(Sc2ncccc2N)cc1 | nt | -6.4 | nt | 7.2 | 5.5 | 9.0 | 1.3
CCn1c(C(Cc2ccccc2)NC(=O)COC)nc2ccccc21 (stereo not drawn) | 4472 | -2.5 | -19.1 | 1.3 | 8.9 | -12.2 | -11.4
CC(C)(C)OC(=O)N1CCOCCOCCNCCOCCOCC1 | 2757 | -7.0 | -22.5 | 16.1 | 12.7 | 0.7 | -11.2
CCOc1ccc(C2=Nc3ccccc3C(c3ccc(N4CCOCC4)cc3)=NN2)cc1 | 6091 | 8.7 | -77.9 | -3.2 | -2.5 | 2.1 | 1.5
Nc1nc(SCc2cccnc2)c2ncn(C3OC(CO)C(O)C3O)c2n1 (stereo not drawn) | 3928 | nt | -5.5 | -15.1 | 9.8 | -5.6 | -3.2
CCCC(C)NC(=O)c1cc(C(=O)OC)cc([N+](=O)[O-])c1 (stereo not drawn) | 7303 | 7.1 | -14.8 | 4.9 | 4.7 | -1.2 | 3.3
CCn1c2ccccc2c2cc(NC(=O)C(C)OC(=O)c3ccc(NC(=O)CC#N)cc3)ccc21 (stereo not drawn) | 8722 | nt | -14.7 | -8.2 | -17.2 | 1.7 | 9.0
CSc1c(C#N)sc(=S)n1-c1ccc(C)cc1 | 4351 | -0.6 | -10.3 | 3.6 | 1.0 | -2.1 | 0.7
CC(OC(=O)c1ccccc1Br)C(=O)Nc1nc(-c2cccc([N+](=O)[O-])c2)cs1 (stereo not drawn) | 2460 | 4.2 | -18.9 | 4.8 | -2.6 | -3.0 | 1.7
Cn1c(CN2CCCCC2)nc2cc(NS(=O)(=O)c3ccc(Cl)cc3)ccc21 | 7197 | 1.7 | -13.9 | 6.8 | -3.3 | 10.9 | 2.1
COC(=O)C1CCCN1S(=O)(=O)c1ccc([N+](=O)[O-])cc1 (stereo not drawn) | 3574 | -1.0 | -11.6 | 1.5 | 8.5 | 36.9 | 35.6
Cc1cccc(NC(=O)CSc2nnc(CSc3nc(C)cc(C)n3)n2Cc2ccco2)c1 | 10829 | 1.3 | 8.3 | 3.6 | 6.0 | 10.5 | 2.1
C=CCN1CC(C)N(C(c2ccc(C(=O)N(CC)CC)cc2)c2cccc(OC)c2)CC1C (stereo not drawn) | nt | nt | nt | 3.1 | -0.6 | -2.2 | 4.5
CC(=O)NN=C(c1ccccc1)C(O)c1ccccc1 (stereo not drawn) | nt | nt | nt | 16.4 | 10.0 | 2.6 | 0.4
CCN(CC)CCCN1C(=O)C(=O)/C(=C(/O)c2ccc(OC)cc2)C1c1ccco1 (stereo not drawn) | 5375 | -8.0 | -14.7 | 7.3 | 3.1 | 4.4 | 3.5
O=C(COC(=O)c1cncc(Br)c1)Nc1ccc(N2CCCCC2)cc1 | 6109 | nt | -52.2 | 5.3 | 2.0 | 9.1 | 1.1
Cc1ccc(-c2csc(=S)n2CC(=O)OCC(=O)NCc2ccco2)cc1 | 9278 | 2.7 | -20.4 | 5.1 | 16.5 | 5.7 | 4.6
Cc1ccc(CCNC(=O)CNS(=O)(=O)c2ccc3nc(C)sc3c2)cc1 | 4145 | -30.0 | -16.3 | -2.3 | -11.6 | 6.4 | 1.5
Cc1onc(-c2ccccc2Cl)c1C(=O)N1CCN(c2ccc(F)cc2)CC1 | 5814 | -2.5 | -5.6 | 2.7 | 7.1 | 10.8 | 2.4
CC(=O)Cc1nsc(NC(=O)c2cn(-c3ccccc3)nc2-c2ccc(Br)cc2)n1 | ? | -1.4 | -21.1 | 5.4 | 3.7 | -0.3 | -1.7
CCOC(=O)C(CCC#N)(CCC#N)C(=O)OCC | ? | 2.3 | -10.6 | 11.5 | 2.5 | 15.5 | 9.2
O=C(c1cccc(Br)c1)N1CCCC1 | 23116* | -7.1 | -19.3 | nt | nt | 4.5 | 7.7
O=C(COC(=O)Cc1cccc(C(F)(F)F)c1)Nc1ccc2[nH]c(=O)[nH]c2c1 | 4255 | 5.0 | -9.3 | 9.2 | -3.0 | 4.1 | 3.4
COc1ccc(CCNc2ncnc3[nH]ncc23)cc1OC | 4521 | 2.8 | -4.5 | 4.3 | 5.9 | -0.5 | 2.7
c1csc(C(c2nnnn2C2CCCC2)N2CCOCC2)c1 (stereo not drawn) | 2727 | 3.3 | -3.5 | 3.3 | -5.1 | 7.4 | 2.0
COc1ccc(-n2c(SCC#N)nnc2-c2cccnc2)cc1 | 7993 | -2.2 | -31.7 | 8.0 | 6.8 | -3.7 | 5.5
CN(CCNC(=O)C1CCC(=O)N(Cc2ccc(Cl)cc2)C1)CCc1ccccc1 (stereo not drawn) | 4471 | 1.8 | 0.7 | 6.0 | 8.8 | -3.2 | 2.8
CCn1cc(S(=O)(=O)c2ccc(Cl)cc2)c(=O)c2cc(OC)ccc21 | 5513 | -20.9 | -4.2 | -7.1 | -3.6 | 6.3 | 4.7
N#Cc1c(-c2ccc(F)cc2)c2c([nH]c1=O)-c1ccccc1OC2 | 3840 | 8.1 | -46.7 | 0.6 | 4.0 | 4.5 | 0.5
O=C(CC(=O)Nc1ccc(Cl)c(Cl)c1)NN=Cc1ccc(O)cc1 | nt | nt | nt | -6.3 | -2.9 | -10.6 | 2.8
CCCCn1c(N=Cc2ccc3c(c2)OCO3)nc2ccccc21 | nt | nt | nt | -2.8 | 6.0 | -0.9 | 1.9
COc1ccccc1C1CCN(Cc2ccccc2Cl)CC1 | 4567 | -1.7 | nt | 12.3 | 3.7 | 11.0 | 2.7
O=C(CC1SC(=O)NC1=O)Nc1ccc(Cl)cc1 (stereo not drawn) | 2193 | -3.5 | -8.3 | 3.1 | 14.9 | -1.0 | 6.9
COC(=O)c1c(NC(=O)CSc2nnc3ccccn23)sc2c1CCC2 | 9152 | 3.8 | 3.8 | 2.6 | -2.1 | 10.9 | 6.1
CC(C)c1ccc(Nc2nc(Cl)nc(NCc3ccco3)n2)cc1 | 5454 | 1.6 | -15.2 | -9.6 | 6.2 | 2.4 | -3.9
CC(C)OCCCNc1nc(Cl)nc2c1cnn2C | 4327 | nt | -3.5 | 4.0 | 6.1 | 8.5 | 3.2
Nc1ncnc(Oc2ccccc2F)c1[N+](=O)[O-] | 4474 | 5.7 | -13.6 | -7.3 | 5.5 | 4.8 | 1.9

Pulled one by one from the entries so far:
SMILES | Bead autofluor | BJeLR lethal | PrP UTR inh | Mtb hypoxia inh | Mtb hypoxia inh growth | ugtP null kill | RN4220 kill
Cc1ccc(CCNC(=O)CNS(=O)(=O)c2ccc3nc(C)sc3c2)cc1 | 4145 | -30.0 | -16.3 | -2.3 | -11.6 | 6.4 | 1.5
COc1ccccc1C1CCN(Cc2ccccc2Cl)CC1 | 4567 | -1.7 | nt | 12.3 | 3.7 | 11.0 | 2.7

Going on with the list:
SMILES | Bead autofluor | BJeLR lethal | PrP UTR inh | Mtb hypoxia inh | Mtb hypoxia inh growth | ugtP null kill | RN4220 kill
COc1ccc(C(C)=NNC(=O)C(c2ccncc2)N2CCOCC2)cc1 (stereo not drawn) | nt | nt | nt | 7.6 | -2.0 | 3.3 | 1.3
CC(=O)c1c(C)[nH]c(C(=O)COC(=O)c2ccc(Cl)nc2)c1C | 4292 | nt | -4.1 | 5.2 | 7.6 | 1.3 | 6.5
O=C(O)CC(NC(=O)c1ccccc1NC(=O)c1ccccc1)C(=O)O (stereo not drawn) | 2447 | 5.0 | -18.8 | 2.4 | 6.0 | 0.8 | 0.4
O=C(c1cccs1)N1CCCC(c2ccccc2)C1 (stereo not drawn) | 3680 | 3.2 | -31.8 | 11.7 | 0.8 | -1.2 | 1.7
CC(=O)Nc1ccc(C(=O)Cn2c3[n+](c4c(F)c(F)ccc42)CCCCC3)cc1 | 3702 | 12.2 | -1.9 | 8.7 | 4.1 | 6.5 | 5.3
C=CCSc1nnc(-c2cc3c(C(F)(F)F)nn(C)c3s2)n1C | 2825 | -2.7 | -19.4 | 21.7 | 19.3 | -6.4 | -12.2
Cc1nn(C)cc1C(=O)c1ccccc1 | 3240 | 0.3 | -9.5 | 7.3 | 0.7 | 8.7 | 4.0
CC(=O)Nc1cc(C(=O)N(C)Cc2ccco2)ccc1Sc1ccc(C)cc1 | 2507 | 1.9 | -10.6 | 9.6 | 13.1 | 0.6 | 0.4
Cc1nc(SCc2ccc(C#N)cc2)n[nH]1 | 3751 | -5.4 | -36.3 | 10.7 | 0.5 | 10.2 | 4.2
COc1ccc(C(C(=O)NCC2CCCO2)N(Cc2ccccc2)C(=O)c2snc(C(N)=O)c2N)cc1OC (stereo not drawn) | 4004 | 2.0 | -12.2 | nt | nt | nt | nt
O=C(CS(=O)(=O)c1cn(Cc2ccc(Cl)cc2)c2ccccc12)N1CCOCC1 | 4749 | -2.3 | 40.8 | 1.3 | 1.4 | 13.1 | 24.9
COCCn1c(SCC(=O)Nc2ccccc2)nc2c1c(=O)[nH]c(=O)n2C | 4695 | 4.3 | -6.9 | 2.2 | 2.2 | 0.6 | 3.5
Cn1nccc1C(=O)NC1CC(C)(C)Cc2c1cnn2-c1ccc(F)cc1 (stereo not drawn) | 6558 | 6.9 | -14.5 | nt | nt | nt | nt
O=C(Nc1ccon1)c1cccc(S(=O)(=O)N2CCCC2)c1 | 19894* | 2.5 | -26.3 | 13.9 | 6.5 | 7.2 | 7.3
O=C1/C(=C/c2cccs2)SC(=S)N1NS(=O)(=O)c1ccccc1 | 4552 | 0.4 | -48.9 | 5.6 | 0.2 | 22.0 | -19.2
CC(C)NC(=O)N(C)CC1Oc2c(NS(=O)(=O)c3cn(C)cn3)cccc2C(=O)N(C(C)CO)CC1C (stereo not drawn) | nt | nt | nt | 12.6 | 5.9 | 0.7 | 4.3
Cc1nc(C)n(CC(O)COc2ccc3cc(Br)ccc3c2)n1 (stereo not drawn) | 7985 | nt | -30.9 | 6.0 | 3.2 | 6.6 | 6.7
COc1cc(C(=O)N2CCCc3ccccc32)c([N+](=O)[O-])cc1OC | 3433 | 1.8 | -17.0 | 0.1 | 1.5 | 4.7 | 3.7
O=C(Nc1ccc2ccccc2n1)c1ccc(Cl)cc1 | 3836 | -0.3 | -89.1 | 24.2 | 14.7 | 5.7 | 5.5
COc1ccc(C(=O)OCC(=O)Nc2cc(C)on2)cc1S(=O)(=O)N1CCOCC1 | 3918 | -1.5 | -24.1 | nt | nt | 6.2 | -0.9
CCCN(CC(=O)Nc1ccccc1C)C(=O)c1ccc(S(=O)(=O)N2CCC(C)CC2)cc1 | ? | nt | -10.9 | -3.9 | 10.8 | -5.5 | -0.6
Cc1ccc(P(=O)(CO)c2ccc(C)cc2)cc1 | 16417* | 3.7 | -2.4 | 14.0 | 0.5 | 6.5 | 3.7
CC(=O)Nc1ccc(S(=O)(=O)NC2CC(=O)N(c3cccc(F)c3)C2)cc1 (stereo not drawn) | 5257 | 2.9 | -15.5 | -5.4 | 1.0 | 5.6 | -0.6
O=C(COc1ncnc2ccccc12)NCC1CCCO1 (stereo not drawn) | 4432 | -5.9 | -29.3 | -13.3 | 3.7 | -10.6 | -2.2
CCC(C(=O)Nc1nccs1)(C(F)(F)F)C(F)(F)F | 7965 | -2.8 | nt | 7.0 | 7.3 | 4.6 | 5.5
COC(=O)c1cc(OC)nc2c1c(=O)n(C)c(=O)n2C | 2037 | 1.6 | -27.1 | 7.1 | -11.3 | 0.2 | 2.2
CC1CCCCN1C(=S)NCc1ccco1 (stereo not drawn) | 4507 | -24.5 | -4.4 | -4.3 | 4.3 | 5.8 | 8.6
